Bioassay records: PubChem, several laboratories
BJeLR viability = MLPCN primary cell-based screen for lethality selective to Ras in HRASV12 cells; hit rate 0.17% among 300,000; BJeLR (HRASV12) viability, CellTiter-Glo ATP luminescence, 48 h; reference of the scale not given here; inhibition, % (concentration not given with the values);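 active = replicate mean above 50%; inconclusive = above 50% but judged a plate artefact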;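 also: 50 nL library stock added to about 25 µL; numbers are from one replicate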
PrP 5UTR inh = inhibition of PrP 5' UTR reporter expression | cell-based PrP 5' UTR mRNA reporter, plate reader | inhibition, % (no concentration beside the values) | hit rate 0.35% among 340,000 | AID 488862, 2010;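 active = every replicate at 50% or more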;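 also: 0 = median of the neutral control wells; tested in H4 reporter cells; numbers are from one replicate; inactives centre near -14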
Bead autofluor = compound fluorescence in toxin protease inhibitor counterscreen | compound autofluorescence counterscreen, microsphere flow cytometry; stronger effect = higher value | fluorescence intensity (test concentration not listed) | hit rate 3.1% among 360,000 | AID 624483;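 active = at least 3 SD above the mean of all compounds, about 16000 in these data; inconclusive = too few beads counted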;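 also: 100 nL of 1 mM stock went into each well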
RN4220 kill = growth inhibition of S. aureus RN4220, primary screen, OD600; 16 h; inhibition, % (test concentration not listed); hit rate 0.33% among 330,000; AID 1259311, 2017;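 active = z-score of -3 or lower and OD600 up to 0.18 on both plates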;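 also: plate controls were untreated cells for no effect and reference antibiotic for full effect; stock transfer was 100 nL into about 80 µL; one replicate is shown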
Mtb hypoxia inh = PubChem AID 1159583; M. tuberculosis hypoxia-regulated fluorescent reporter, fluorescence; fluorescence inhibition, % (no concentration beside the values); hit rate 0.1% among 300,000;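 active = 35 to 45% if threefold the growth effect, above 45% if 1.5-fold the growth effect; inactive = the rest, general growth blockers included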;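 also: wells of about 50 µL received 100 nL stock; 0% = vehicle wells and 100% = reference inhibitor wells; whole bacteria with a GFP reporter of the hypoxia response; strong numbers were not always called active; many hits fall short of the cut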
ugtP null kill = growth inhibition of ugtP-null S. aureus, primary screen, RN4220 ugtP deletion, OD600. 16 h; some inactives read as strong as hits. growth inhibition, % (no concentration beside the values). hit rate 0.54% among 330,000. AID 1259309, 2017;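 active = z-score under -3 and OD600 up to 0.15 on both plates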;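 also: plate controls were untreated wells for no effect and antibiotic for full effect; wells of about 80 µL received 100 nL stock; the first replicate is given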
Mtb hypoxia inh growth = second read-out of Mtb hypoxia inh, no call of its own (marks repeat the call); growth inhibition, %; measured here: M. tuberculosis growth (absorbance);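 0% = vehicle and 100% = reference antibiotic; read after six days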
An asterisk follows results filed as active; u = inconclusive; x = no result given.

structure,BJeLR viability,PrP 5UTR inh,Bead autofluor,RN4220 kill,Mtb hypoxia inh,Mtb hypoxia inh growth,ugtP null kill
CCOC(=O)c1ccc(N2C(=O)CC(SCC(N)C(=O)OCC)C2=O)cc1 (configuration not stated),-7,-8,6016,4.9,1,3,4
CC(=O)c1ccc(NC(=O)C2CC(=O)N(Cc3ccccc3)C2)cc1 (configuration not stated),-6,-50,17232*,-0.7,15,8,6
Cc1cc(C)nc(NS(=O)(=O)c2ccc(NC(=O)CCC3COc4ccccc4O3)cc2)n1 (configuration not stated),x,-7,2110,7.2,x,x,9
Cc1nc(N)sc1-c1csc(N(C)c2ccc(O)cc2)n1,7,-39,23793*,11,0,2,-17
O=S(=O)(NCc1csc(-c2cccnc2)n1)c1cccs1,-2,-13,5898,-6.8,5,9,-7
COc1ccc(C(=O)C2CCN(C(=S)Nc3ccc(F)cc3)CC2)cc1,1,-13,3378,2.9,-4,-5,10
COCCNC(=O)CCC(=O)NNc1nc2ccccc2c2nc(C)nn12,-3,-6,2429,0.0,7,3,11
COc1ccccc1NC(=O)C(C)OC(=O)C1CC(=O)N(c2ccc3c(c2)OCCO3)C1 (configuration not stated),-7,-75,5125,x,x,x,x
COC(=O)CCCC1=CC2=CC(=O)C(C)(OC(=O)c3cccs3)C(=O)C2=CN1CCc1ccccn1 (configuration not stated),7,-1,3183,7.4,16,1,1
O=C(NNc1nc(-c2ccccc2)cs1)c1ccc(F)cc1,-2,-12,4298,x,x,x,x
COc1ccc(/C=C2\CCCC(C(=O)C(F)(F)F)=C2O)cc1,-5,-38,3731,1.5,x,x,9
Cn1c(SCc2ccc(C(C)(C)C)cc2)nnc1C1COc2ccccc2O1 (configuration not stated),-2,x,x,1.4,0,-3,11
Cc1ccccc1NC(=S)NN=C1CC(C)(C)Oc2ccc(O)cc21,x,x,x,6.3,1,15,10
Cn1c(N)c(S(=O)(=O)N2CCCC2)c(=O)n(C)c1=O,1,-20,5981,-0.3,-4,2,-1
CC(C)c1ccc(NC(=O)c2ccc3c(c2)C(=O)N(Cc2cccnc2)C3=O)cc1,5,-20,5574,-1.4,1,0,-7
Cc1sc2ncnc(N3CCCCC3C)c2c1C (configuration not stated),4,-9,u,1.6,5,-1,14
O=C(/C=C/c1ccoc1)c1ccccc1O,-5,-14,11117,x,x,x,x
Cc1ccc(N2C(=O)N(CC(=O)Nc3c(C)cc(C)cc3Cl)C(=O)C2C)cc1 (configuration not stated),-6,-12,4591,3.3,5,-1,6
c1ccc2c(c1)CC1CNCc3cccc(c31)S2 (configuration not stated),-10,-5,2095,-3.1,-3,-5,4
CCOc1ccc(/C(O)=C2\C(=O)C(=O)N(c3ccc(OC)cc3)C2c2ccccc2[N+](=O)[O-])cc1 (configuration not stated),15,x,x,-3.7,-5,5,-9
COc1ccc(N2C(=O)CC(N3CCC(O)(c4cccc(C(F)(F)F)c4)CC3)C2=O)cc1 (configuration not stated),1,-20,3742,3.2,x,x,10
COC(=O)c1c(NC(=O)C2CC2)sc(C(=O)Nc2ccccc2)c1C,6,-24,4546,9.6,6,9,6
COc1ccc(CSc2n[nH]c(C)n2)cc1Br,-5,-14,8799,1.4,4,6,4
NC(=O)C1=CC(C2CCCCC2)CC(OCCCCO)O1 (configuration not stated),x,x,x,3.5,3,-3,-2
CC(=O)c1c(N2CCN(C(=O)c3ccco3)CC2)nc(=S)n(-c2ccccc2)c1C,-5,-16,9149,-1.3,3,1,4
Cc1ccccc1OCCSc1nc2ncnc(N)c2[nH]1,4,-7,4179,4.5,-5,3,7
CCn1c(C)nc2cc(C(=O)NN=Cc3ccccc3OC(F)F)ccc21,x,-43,8324,3.1,-4,0,4
CCc1nc(SCc2ccc(OC)cc2)n[nH]1,4,-42,3189,3.6,5,7,5
Cc1ccc(C2CC(=O)NC3=C2C(=O)CCC3)cc1Br (configuration not stated),-5,9,2714,3.9,x,x,-3
CC1(c2nnc(-c3ccc(Cl)cc3)o2)CC(c2ccc(Cl)cc2)=NO1 (configuration not stated),1,-8,4019,1.4,4,6,12
CNC(=O)COC(=O)[C@@H](Nc1ccc(S(=O)(=O)N2CCOCC2)cc1[N+](=O)[O-])C(C)C,-10,-5,2139,x,x,x,x
COc1ccc([N+](=O)[O-])cc1NC(=O)CSc1nc(C)c(C)c(C)n1,-2,-5,3934,-0.1,-4,11,3
Cc1ccc(N2CCN(C3=NC(=O)C(Cc4ccccc4)S3)CC2)cc1 (configuration not stated),12,-3,2931,5.7,9,11,2
COc1ccc(C(=O)O)cc1S(=O)(=O)N(C)CCc1cccnc1,-3,-5,4839,-4.2,x,x,8
Cc1nn(-c2ccccc2)c(Cl)c1/C=N/NC(=O)CNC(=O)c1ccccc1Cl,-6,-30,1976,x,x,x,x
Cc1ccccc1Cn1cc(S(=O)(=O)c2ccc(C(C)C)cc2)c(=O)c2cc3c(cc21)OCO3,-12,-14,5673,3.3,-2,-2,7
CC(C)N(C)C(=O)c1ccc(OC2CCN(CCc3ccccc3)CC2)cc1,4,6,5050,2.5,-6,8,5
O=C(COc1ccc(Br)cc1)N1CCN(c2ccccc2)CC1,16,-22,2970,1.0,9,5,0
CN=C(Cc1ccccc1)C1=C(O)CC(C)(C)CC1=O,0,-16,3393,0.5,5,-5,3
CCn1c(-c2cc3c(C(F)(F)F)nn(C)c3s2)n[nH]c1=S,2,5,16651*,7.0,3,-2,5
CCOc1ccc(S(=O)(=O)N2CCN(Cc3ccco3)CC2)cc1,-1,-11,5393,-1.6,0,4,0
CCOC(=O)C(=NNc1cc(Cl)ccc1Cl)N1CC(C)OC(C)C1 (configuration not stated),x,x,x,1.8,15,-3,5
Cc1ccccc1OCC(=O)NCc1ccccc1,5,-22,2456,8.0,5,4,-10
CCCOc1cccc(C(=O)NN=Cc2coc3ccccc3c2=O)c1,x,x,x,4.7,12,5,11
NS(=O)(=O)c1ccc(NC(=O)CSc2ncn[nH]2)cc1,-1,0,3935,1.8,-16,1,-1
COc1ccc(CNc2nc(-c3ccccc3)nn2C(=O)c2cccs2)cc1,-6,-7,11657,-1.6,1,2,-5
COc1ccccc1C=NNc1cc(C)nc2ccc(C)cc12,x,x,x,3.2,-2,7,-3
CC(=O)N1CCN(Cc2cc(=O)n3cc(Cl)c(C)c(Cl)c3n2)CC1,1,-7,9422,5.1,2,6,-6
COc1ccc(Cn2nnc3c(=O)[nH]c(C4CCN(C(=O)c5ccccc5Cl)CC4)nc32)cc1,0,3,2594,-0.1,1,11,31
COc1ccc(CCNC(=O)c2ccc(=O)[nH]c2)cc1,5,-25,3547,-2.5,7,3,-9
CCOC(=O)c1ccc(N2C(=O)CC(N3CCCC(C)C3)C2=O)cc1 (configuration not stated),-10,-9,25079*,6.9,-4,8,2
NC(=O)C1CCCN(C(=O)c2ccc(Cl)c(S(=O)(=O)N3CCc4ccccc43)c2)C1 (configuration not stated),x,-10,u,5.7,-3,-6,2
COc1cccc(S(=O)(=O)Nc2cccc(C(=O)N3CCOCC3)c2)c1,-2,-8,2914,1.2,x,x,-4
CC(=O)Nc1ccc(NC(=O)CSc2nc3c(=O)n(C)c(=O)n(C)c3n2C)cc1,1,-33,4864,0.8,0,2,5
CCCCCn1c(CN2CCN(C(=O)OCC)CC2)nc2c1c(=O)[nH]c(=O)n2C,-2,-8,11366,4.3,7,4,1
COc1ccc(S(=O)(=O)N2CCCCC2)cc1NC(=O)C1CC(=O)N(Cc2ccccc2)C1 (configuration not stated),x,-13,6651,1.9,7,0,7
Cc1ccn2c(=O)nc(SCC(=O)NC3CCCC3)nc2c1,5,-6,u,1.3,4,3,2
CC(=O)Nc1cccc(NC(=O)Nc2cccc3ccccc23)c1,-11,-12,x,-1.1,-5,-6,7
Cc1c(Cl)cn2c(=O)cc(CN3CCN(c4ccc(F)cc4)CC3)nc2c1Cl,0,x,x,4.2,-4,-6,-4
O=C(CNC(=S)NC(=O)c1ccccc1)c1ccccc1,-10,-83,2384,5.3,1,-3,-11

Exported with values under each structure: entries from further up
Below each compound: BJeLR viability, PrP 5UTR inh, Bead autofluor, RN4220 kill, Mtb hypoxia inh, Mtb hypoxia inh growth, ugtP null kill
- Cc1ccccc1NC(=S)NN=C1CC(C)(C)Oc2ccc(O)cc21
 : x, x, x, 6.3, 1, 15, 10
- Cn1c(N)c(S(=O)(=O)N2CCCC2)c(=O)n(C)c1=O
 : 1, -20, 5981, -0.3, -4, 2, -1
- CC(C)c1ccc(NC(=O)c2ccc3c(c2)C(=O)N(Cc2cccnc2)C3=O)cc1
 : 5, -20, 5574, -1.4, 1, 0, -7
- Cc1sc2ncnc(N3CCCCC3C)c2c1C (configuration not stated)
 : 4, -9, u, 1.6, 5, -1, 14
- O=C(/C=C/c1ccoc1)c1ccccc1O
 : -5, -14, 11117, x, x, x, x
- Cc1ccc(N2C(=O)N(CC(=O)Nc3c(C)cc(C)cc3Cl)C(=O)C2C)cc1 (configuration not stated)
 : -6, -12, 4591, 3.3, 5, -1, 6
- c1ccc2c(c1)CC1CNCc3cccc(c31)S2 (configuration not stated)
 : -10, -5, 2095, -3.1, -3, -5, 4

Going on with the list:
SMILES	BJeLR viability	PrP 5UTR inh	Bead autofluor	RN4220 kill	Mtb hypoxia inh	Mtb hypoxia inh growth	ugtP null kill
CCOc1ccccc1N1C(=O)c2ccc(C(=O)O)cc2C1=O	1	-7	3147	-8.0	11	5	-3
COc1ccc(C(=O)Nc2ccc(C(=O)NCCc3ccc(OC)c(OC)c3)cc2)cc1	-6	3	3291	4.9	3	-9	6
Cc1nnc(NN=Cc2ccc(-c3ccccc3[N+](=O)[O-])o2)n1N	x	x	x	12	3	6	3
O=c1[nH]c(O)c(/C=C2\C=Nc3ccc(OCc4ccccc4)cc32)c(=O)[nH]1	-6	-11	3623	x	x	x	x
CC(=NNC(=O)Cc1ccc(O)cc1)c1cccnc1	x	x	x	1.2	5	16	0
CC(=O)c1ccc(OC(C)C(=O)Nc2cccc(S(=O)(=O)NCc3ccco3)c2)cc1 (configuration not stated)	x	-20	3535	-2.3	5	2	-9

Random draw from the library; about 4.1% have a hit in one of these screens.
